Arbovirus inh: antivirals against arbovirus infection. arbovirus infection cell-based antiviral screen. inhibition, % at 10 µM. 0.37% of 200,000 active. AID 1251;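 active means inhibition from about 30%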;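 further: bluetongue infection of BSR cells; cell survival read as ATP light after 72 h; 0% = infected wells without compound and 100% = uninfected wells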
Mtb bLac sens: beta-lactam sensitization of Mtb H37Rv. M. tuberculosis H37Rv growth with meropenem, percent inhibition; hits of this screen are not shown here. inhibition, % at 25 µM. 0.27% of 330,000 active. AID 434955;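 active means about 74% or more and at least 40 points above the plate without the antibiotic, then above 30% in a dose series; inconclusive means first-round hits that could not be retested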;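 further: growth measured after seven days incubation then overnight dye step; 0% = bacteria only wells and 100% = bacteria with antibiotic; twin plates without the antibiotic show which effects depend on it; some results filed as inactive read as strong as hits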
Mtb growth: M. tuberculosis H37Rv growth inhibitors, H37Rv strain (AID 1626) | M. tuberculosis H37Rv growth inhibition; higher % means a stronger effect | inhibition, % at 10 µM, or IC50 in µM where a hit was titrated | 0.95% of 220,000 active;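 active means confirmed in a dose series; inconclusive means inhibition above 80% but not taken into the dose series; inactive means below 80% or under 30% at every dose of the series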;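 further: bacteria incubated seven days before Alamar blue readout; 0% = bacteria only wells and 100% = bacteria with antibiotic wells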
YopH inh: YopH (Yersinia) phosphatase inhibition | 0.16% of 140,000 active | inhibition, %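 (about 10 µM by stock and volumes)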 | fluorescence Ex485/Em525;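 active means inhibition of 50% or more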;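 further: controls were vehicle for no effect and minimum signal wells for full effect; inactives centre near -20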
RecA intein inh: Mtb RecA intein splicing inhibition | P9WHJ3 | cell-free RecA intein splicing, fluorescence | 0.75% of 290,000 active | inhibition, %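 (about 9 µM by stock and volumes)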; in the data active means inhibition above about 30%; inconclusive means no clear call, values can overlap the other calls;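 further: 0% = vehicle wells and 100% = reference inhibitor control wells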
Target sequence (P9WHJ3 whole entry, looked up): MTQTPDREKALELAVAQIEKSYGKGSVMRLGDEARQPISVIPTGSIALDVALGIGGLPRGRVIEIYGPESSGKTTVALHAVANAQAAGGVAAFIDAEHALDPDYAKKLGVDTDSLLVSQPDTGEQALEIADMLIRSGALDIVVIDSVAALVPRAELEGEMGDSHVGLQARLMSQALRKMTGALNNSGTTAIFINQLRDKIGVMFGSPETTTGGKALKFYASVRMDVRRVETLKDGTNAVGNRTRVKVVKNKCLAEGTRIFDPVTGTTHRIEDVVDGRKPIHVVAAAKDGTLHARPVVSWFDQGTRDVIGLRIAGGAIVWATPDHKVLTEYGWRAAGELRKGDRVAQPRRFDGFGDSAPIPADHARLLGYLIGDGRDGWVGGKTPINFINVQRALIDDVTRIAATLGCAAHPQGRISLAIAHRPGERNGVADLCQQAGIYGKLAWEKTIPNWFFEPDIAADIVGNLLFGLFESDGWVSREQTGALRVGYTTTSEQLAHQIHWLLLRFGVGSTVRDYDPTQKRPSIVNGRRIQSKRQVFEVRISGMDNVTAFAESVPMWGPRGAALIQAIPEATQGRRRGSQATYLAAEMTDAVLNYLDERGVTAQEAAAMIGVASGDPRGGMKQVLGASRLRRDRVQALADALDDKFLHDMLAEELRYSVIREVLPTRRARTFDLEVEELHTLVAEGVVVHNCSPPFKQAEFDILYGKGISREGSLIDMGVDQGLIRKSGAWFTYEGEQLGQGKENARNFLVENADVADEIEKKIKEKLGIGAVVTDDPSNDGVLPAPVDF
Arbovirus inh repeat: recorded beside Arbovirus inh, whose call it bears; inhibition, %; measured here: 10K subset replicate screen; many hits read low in the repeat;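 first of two repeat runs on a subset; 0% = infected and 100% = uninfected wells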
* marks the source's active call; other numbers are inactive results; ? = inconclusive; / = not tested or not shown. The list is partial; rates above refer to the full screens.

Start of the data: the first 2 records as a preview:
SMILES	Arbovirus inh	Mtb bLac sens	Mtb growth	YopH inh	RecA intein inh	others
Cc1ccc(-c2nn(-c3ccccc3)cc2C(=O)N2CCOCC2)cc1C	7	6	11%	/	-0.7
NC(=O)C1CCCN(C(=S)Nc2cccc3ccccc23)C1 (stereo not drawn)	-2	7	-6%	-19	1.4

Main list, repeating the preview:
SMILES	Arbovirus inh	Mtb bLac sens	Mtb growth	YopH inh	RecA intein inh	others
Cc1ccc(-c2nn(-c3ccccc3)cc2C(=O)N2CCOCC2)cc1C	7	6	11%	/	-0.7
NC(=O)C1CCCN(C(=S)Nc2cccc3ccccc23)C1 (stereo not drawn)	-2	7	-6%	-19	1.4
COc1cc(CCCN2C(=S)NC[C@@H]2c2ccccc2)cc(OC)c1OC	8	-8	-6%	/	-1.0
CCc1nnc(NS(=O)(=O)c2ccc(N=Cc3c(C)[nH]n(-c4ccc(C)c(C)c4)c3=O)cc2)s1	-18	11	13%	-3	-6.1
CCN(CC)S(=O)(=O)c1ccc(N2CCCC2)c(NS(=O)(=O)c2cccs2)c1	5	-2	1%	/	-0.9
COc1ccc(C)cc1NC(=O)CSc1ccc(-c2cccnc2)nn1	-2	-7	5%	/	-0.6
CCCn1c(N)c(Sc2ccccc2[N+](=O)[O-])c(=O)n(CCC)c1=O	/	-1	/	/	0.4
CNC(=S)N1CCN(c2cccc(OC)c2)CC1	4	-3	-6%	0	-0.7
CC(NC(=O)Cc1ccc(S(=O)(=O)N2CCOCC2)s1)c1ccc(Cl)c(Cl)c1 (stereo not drawn)	/	-4	/	/	3.5
CC(NC(=O)c1ccc(C#N)cc1)C1CC2CCC1C2 (stereo not drawn)	/	8	/	/	0.4
C(#Cc1ccccc1)Cn1nnc2ccccc21	-7	9	2%	-22	2.8
COc1ccc(Cc2nc3c4c(ncn3n2)Oc2c(ccc3ccccc23)C4c2ccc(OC)c(OC)c2)cc1 (stereo not drawn)	-8	3	45%	-20	0.1
Cc1ccc(/C=C/C(=O)O)cc1S(=O)(=O)N(C)CCO	-1	3	-3%	-32	-4.7
N#CCC(=O)Nc1ccc(C(=O)OCC(=O)Nc2ccccc2Sc2ccccc2)cc1	-9	0	1%	/	25
O=C(O)CSC(C(=O)Nc1ccc(Br)cc1)c1ccccc1 (stereo not drawn)	8	-3	-6%	/	-0.5
COC(=O)c1cn(C(=O)c2ccc(C)cc2C)c2ccccc12	-12	-3	4%	/	1.9
CCCCN(C)Cc1c(C)[nH]c2ccc(Cl)cc2c1=O	6	1	7%	-29	0.4
Cc1ccc(-c2c[n+](CC(=O)Nc3nc(-c4ccccc4)cs3)c3n2CCC3)cc1	/	97	7.8µM*	/	6.0
C/C(=N\OCc1nc2ccccc2c(=O)n1/N=C/c1cc(C)cc([N+](=O)[O-])c1O)c1ccccc1	/	5	0%	/	15
COc1ccc(NC(=O)C2=CC(c3ccc(OC)cc3)=NS(=O)(=O)N2C)cc1	/	-7	/	/	5.8
Cc1cc(NC(=O)CSc2nc3ccccc3c(=O)n2C2CCCC2)no1	-20	-2	2%	-20	5.6
Cn1c(Cn2c(=O)sc3ccccc32)nnc1SCC(=O)NCCc1ccccc1	1	-4	-6%	-43	-0.8	Arbovirus inh repeat=-3
COc1ccc(-c2cc(=O)oc3c(C)c(OC(=O)c4cccs4)ccc23)cc1	-3	-6	3%	-24	1.5
CCCCCC(=O)Nc1ccc(N2CCOCC2)c(S(=O)(=O)Nc2ccc(OC)cc2)c1	/	-8	/	/	-1.2
Cc1ccc(NS(=O)(=O)c2ccc(NC(=O)c3ccccc3C(=O)O)cc2)c(C)c1	/	-12	/	/	0.5
Cc1ccccc1NC(=O)CSc1nnc(C)c(=O)[nH]1	2	-5	-12%	/	-1.8
Cc1cc(NC(=O)c2cc(-c3cccs3)on2)nn1Cc1ccc(Cl)cc1	-2	-2	/	-36	-1.4
COc1ccc(/C=C2\Sc3ccc(C(=O)N4CCOCC4)cc3N(C)C2=O)cc1	/	6	/	/	3.6
CC1=NNC(=O)C1C(c1ccc(Cl)cc1)C(C#N)C#N (stereo not drawn)	/	-9	-7%	/	85*
CC(C)(C)c1cc(C(=O)NN)n(Cc2ccc(F)cc2)n1	/	-10	-7%	/	/
CC(=O)c1c(C)[nH]c(C(=O)Nc2cccc(S(=O)(=O)N3CCOCC3)c2)c1C	-1	-1	6%	-33	2.5
Cc1noc(NS(=O)(=O)c2ccc(NC(=O)COc3ccc(Cl)cc3Cl)cc2)c1C	1	0	/	-31	2.5	Arbovirus inh repeat=-1
Cc1nc2nc[nH]n2c(=O)c1CC(=O)O	5	4	-1%	-32	-2.6
CC(C)CNS(=O)(=O)c1ccc(S(=O)(=O)N2CCC(N3CCCCC3)CC2)cc1	/	2	/	/	2.7
CCOC(=O)c1csc(NC(=O)c2ccccc2)n1	7	0	10%	-42	2.3	Arbovirus inh repeat=0
CCn1c(COc2ccccc2)nnc1SCC(=O)c1cccc([N+](=O)[O-])c1	3	10	7%	-49	0.9
Cc1ccc(CSCC2Nc3ccc(C(=O)N4CCN(c5cccc(C)c5)C(C)C4)cc3NC2=O)cc1 (stereo not drawn)	/	51	/	/	29
O=C(O)/C=C/C(=O)N(Cc1ccc2c(c1)OCO2)C1CC(=O)N(CCc2ccccc2)C1=O (stereo not drawn)	-1	-9	7%	/	15
O=C1/C(=C/c2ccc(F)cc2)SC(=S)N1Nc1ncc(C(F)(F)F)cc1Cl	13	18	-7%	-6	-0.1
C/C(=N\NC(=O)C1CC1)c1ccccc1O	0	-9	5%	/	/
CCOc1ccc(-c2cc(NC(=O)c3c(F)cccc3F)c(C(=O)O)s2)cc1	/	15	/	/	4.7
COc1cccc(-c2cc(C(=O)Nc3cccnc3Cl)no2)c1	/	46	/	/	0.4
CCS(=O)(=O)NCc1nnc2n1-c1ccc(Cl)cc1C(c1ccccc1)=NC2	2	5	-1%	-24	-4.4
COC(=O)c1ccccc1S(=O)(=O)NC(=O)c1ccccc1	-5	7	2%	-16	2.0
CCCCCCC1CC(CCc2nc(=S)[nH][nH]2)C(=O)O1 (stereo not drawn)	-17	6	7%	-8	-0.3
Cc1ccc(NC(=O)c2cccc(OCc3c(C)noc3C)c2)cc1S(=O)(=O)Nc1ccccc1Cl	3	10	15%	-27	1.6
Cc1oc2c(C)c3oc(=O)c(CCC(=O)NCCCN4CCCC4=O)c(C)c3cc2c1C	/	-4	/	/	-6.5
O=C(NC(Cc1ccccc1)C(=O)O)/C(=C/c1cccc([N+](=O)[O-])c1)NC(=O)c1cccc(Br)c1 (stereo not drawn)	/	-11	/	/	-0.7
O=C(Nc1ccc(Cl)cc1C(=O)c1ccccc1)c1ccc(Br)o1	-10	1	6%	-16	0.9
CSc1sc(-c2n[nH]c(=S)n2C)c2c1C=CCC2	/	0	6%	/	6.6

(further entries)
SMILES	Arbovirus inh	Mtb bLac sens	Mtb growth	YopH inh	RecA intein inh	others
COc1ccc(N2C(=O)CC(N3CCC(c4nc5ccccc5[nH]4)CC3)C2=O)cc1 (stereo not drawn)	2	0	-1%	-1	0.3
Cn1nccc1C(=O)Nc1ccn(C23CC4CC(CC(C4)C2)C3)n1	-3	-2	4%	-26	1.3
O=C1c2ccccc2C(=O)N1CCc1csc(-c2ccc(F)cc2)n1	0	-15	-6%	-38	1.0
CCCCn1c(SCC(=O)NC2CC(C)(C)NC(C)(C)C2)nc2cc(S(N)(=O)=O)ccc21	/	-3	0%	/	-2.3
c1ccc(C(c2nnnn2Cc2ccco2)N2CCN(C3CCCC3)CC2)cc1 (stereo not drawn)	3	-9	2%	-30	2.3
CN(c1ccccc1)S(=O)(=O)c1ccc(NC(=O)c2ccccc2C(=O)O)cc1	/	-12	/	/	-0.1
CCOc1ccc(NC(=O)CN(C)C(=O)c2ccccc2-n2cnnn2)cc1OCC	/	68	/	/	0.4
CCOP(=O)(OCC)c1cccc(O)c1	3	-2	-8%	/	-0.4
Cc1ccc(/C=C2\CCn3c2nc2cc(C(=O)O)ccc2c3=O)c(C)c1	/	2	/	/	3.2
CCOc1ccc(N(CC(=O)N2CCc3ccccc32)S(=O)(=O)c2c(C)noc2C)cc1	-2	15	-1%	-16	/	Arbovirus inh repeat=-1
COc1ccc(N(CC(=O)NCc2ccco2)S(C)(=O)=O)cc1OC	7	1	-14%	6	-1.8
O=C(NCC(F)(F)F)Nc1cccnc1	10	-2	1%	-15	/
O=C(NCCc1nc(-c2ccccc2Cl)no1)C1CCCCC1	/	1	-14%	/	1.5
COc1ccc(/C=C/C(=O)NC(=S)N2CCN(C)CC2)cc1	-2	-6	-4%	/	-1.1
CCOC(=O)c1cn2nc(Oc3ccccc3)ccc2n1	/	-7	-1%	/	-0.6
CSCCC(NC(N)=O)C(=O)Nc1ccc2ccccc2c1 (stereo not drawn)	-7	2	-9%	/	0.5
CCCCn1c(=O)n(C)c(=O)c2c3c(sc21)COC(C)(C)C3	4	-3	-3%	-22	1.6
CCSc1ccccc1C(=O)Nc1cccnc1	-1	0	-6%	-42	2.4
Nc1nonc1C(=O)N/N=C/c1ccncc1	17	1	2%	/	-7.3
C=CC[n+]1c(-c2ccc(Cl)cc2Cl)csc1Nc1c(C)n(C)n(-c2ccccc2)c1=O	-11	7	10%	/	5.2
O=C(O)CSc1c2c(nc3cc(C(=O)Nc4ccc(F)c(Cl)c4)ccc13)CCCC2	/	0	/	/	-1.4
Cc1ccc(NC2=C(Cl)C(=O)OC2OC(=O)c2ccco2)cc1C (stereo not drawn)	-5	23	0%	-19	54*
O=C(NCc1ccc2c(c1)CCO2)Nc1cccc(C(F)(F)F)c1	/	-3	-6%	/	-0.6
CN1c2ccccc2C(=O)/C(=C\Nc2ccc(F)cc2)S1(=O)=O	/	-8	-3%	/	-5.4
COc1c(/C=N/NS(=O)(=O)c2ccc(C)cc2)c(CCN(C)C(C)=O)cc2c1OCO2	/	-1	-1%	/	-2.1
Cc1cc(C(=O)CSc2nnnn2C)c(C)n1-c1ccc2c(c1)OCCO2	2	6	1%	-47	1.8
CCCC(=O)NC(=S)Nc1cccc(C(C)=O)c1	5	-4	/	-19	0.5
Cc1cccn2c(=O)c(/C=N/O)c(Nc3ccccc3F)nc12	/	-6	-2%	/	-1.1
CCOC(=O)N1CCN(C(=O)c2ccc(CN(c3ccccc3)S(C)(=O)=O)cc2)CC1	-6	4	-8%	-30	-0.3
CC1(C)CCC[C@]2(C)C(CS(=O)c3ccccc3)=C(C=O)CC[C@@H]12 (stereo partly drawn)	/	0	/	/	1.7
Cn1c(C(C)(O)C(O)c2ccccc2)nc2ccccc21 (stereo not drawn)	2	-4	0%	-25	-2.4
CN(C)P(=O)(CCl)Nc1ccccc1 (stereo not drawn)	-4	-4	-3%	-28	-2.5
COc1ccc(CNC(=O)C(OC(=O)c2ccco2)c2ccc(F)cc2)cc1 (stereo not drawn)	/	10	/	/	1.3
CCN(CC(=O)Nc1ccc(OC)cc1)C(=O)c1cc(-c2cccs2)nn1-c1ccccc1	/	-6	/	/	-1.0
CC(=O)N1c2ccc(S(=O)(=O)N3CCCC3C(=O)Nc3cccc(F)c3)cc2CC1C (stereo not drawn)	/	?	/	/	3.9
Cc1ccc(-n2c(=O)c3cc4c(=O)n(-c5ccc(C)c(C)c5)c(=O)c4c(C(=O)c4ccc(C(=O)O)cc4)c3c2=O)cc1C	/	-11	-4%	/	-2.3
CCOC(=O)N1CCN(c2c(-c3ccc(C)c(C)c3)c(=O)c2=O)CC1	9	-3	1%	-38	0.7
CCOC(=O)C(C#N)C(c1cccnc1)c1c(C)[nH][nH]c1=O (stereo not drawn)	4	12	-4%	-2	78*
CC(C)C(NC(=O)c1ccc([N+](=O)[O-])cc1Cl)C(=O)N1CCCC1 (stereo not drawn)	/	-3	/	/	-0.7
O=C(CC1NC(=S)NC1=O)c1ccc(Cl)cc1 (stereo not drawn)	/	-4	1%	/	-2.7
Cc1cc(NC(=O)C(C)SCC(=O)N(C)CC(=O)Nc2ccccc2Br)no1 (stereo not drawn)	/	-11	/	/	-1.3
C=CCC(COCc1ccccc1)NS(=O)(=O)c1ccccc1Br (stereo not drawn)	/	-13	-3%	/	4.2
O=c1c2ccccc2nnn1CSc1ccc2ccccc2n1	17	?	-11%	-19	2.3
CC(=O)C1C2c3ccccc3OC1(C)N=c1s/c(=C/c3cn(C)nc3C)c(=O)n12 (stereo not drawn)	-14	4	-6%	-25	0.2

4 successive records from above:
SMILES	Arbovirus inh	Mtb bLac sens	Mtb growth	YopH inh	RecA intein inh	others
Cc1ccc(-c2nn(-c3ccccc3)cc2C(=O)N2CCOCC2)cc1C	7	6	11%	/	-0.7
NC(=O)C1CCCN(C(=S)Nc2cccc3ccccc23)C1 (stereo not drawn)	-2	7	-6%	-19	1.4
COc1cc(CCCN2C(=S)NC[C@@H]2c2ccccc2)cc(OC)c1OC	8	-8	-6%	/	-1.0
CCc1nnc(NS(=O)(=O)c2ccc(N=Cc3c(C)[nH]n(-c4ccc(C)c(C)c4)c3=O)cc2)s1	-18	11	13%	-3	-6.1

Screening data: PubChem, several laboratories
